Assay outcomes from PubChem BioAssay.
Tg IFNy HTS = T. gondii growth inhibition with IFN-gamma, primary screen, cell-based | actives 3.8% (n = 69,000) | AID 1259416, 2018 | Toxoplasma gondii growth in IFN-gamma-treated host cells; hits give low values; reference of the scale not given here | activity change, negative = inhibition, %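 (about 20 µM by stock and volumes)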;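 active = below -70%; inconclusive = fit judged invalid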;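 note: host cells are HeLa cells infected with Toxoplasma gondii; parasite growth read as luciferase light; one replicate is shown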
The depositor's hits bear a star; i = inactive; ? = inconclusive; & = joins results of further samples. A portion of the library; the hit share may differ from the screen's.

#	smiles	Tg IFNy HTS
1	C[C@@H]1CCCCO[C@H](CN(C)C(=O)c2ccncc2)[C@@H](C)CN([C@H](C)CO)C(=O)c2cc(NC(=O)CCC(F)(F)F)ccc2O1	86
2	O=C(NCCc1ccccc1)c1ccc(OC2CCN(C(=O)c3cncs3)CC2)cc1	-25
3	CCCN1C[C@H](CSC)C[C@@H]2c3cccc4[nH]cc(c34)C[C@H]21	10&-7&10
4	COc1cc(CCC(=O)N2CCC(c3nnsc3S(C)(=O)=O)CC2)ccc1C	4
5	Cc1cccnc1CN1CCN(CC(C)c2ccccc2)CC1 (stereo not given)	0
6	COc1ccc(/C=C2\CCc3ccccc3C2=O)c(OC)c1OC	59
7	COc1ccc(NC(=O)N(C)C[C@H]2OCc3cnnn3CCCC(=O)N([C@H](C)CO)C[C@@H]2C)c(OC)c1	i
8	N[C@@H]1CC[C@@H](NC(=O)c2n[nH]c3c2CCC3)C1	12
9	CCn1c(C2CCCN(Cc3cccn3-c3ncccn3)C2)nn(C)c1=O (stereo not given)	1
10	CC(=O)N1CC[C@@H]2Oc3ccccc3S(=O)(=O)N(CC3CC3)[C@@H]2CC1	26
11	O=C(Nc1ccc2c(c1)OCO2)N1CCC(n2cc(-c3cccnc3)nn2)CC1	-1
12	COc1ccc(S(=O)(=O)NCc2ccco2)c2ccccc12	5
13	CCCN1CCC2(CC1)NC(=O)N(C1CCN(S(=O)(=O)c3ccc(C)c(C)c3)C1)C2=O (stereo not given)	4
14	COc1ccc(NC(=O)c2cnn3ccccc23)c(NC(=O)C(C)C)c1	6
15	C/C=C/c1ccc(C2[C@H]3CNC[C@@H]2N3Cc2ccc(OC)cc2)cc1 (stereo not given in full)	-4

Additional structures.
#	smiles	Tg IFNy HTS
16	CCOC(=O)CSC(=S)NC(C)c1ccccc1 (stereo not given)	30
17	Cc1ccc(C)c(NC(=O)C(=O)NCCc2csc(-c3ccc(F)cc3)n2)c1	-69
18	Cn1ccnc1CN1CCCC2(CC(Nc3ccccc3)CO2)C1 (stereo not given)	36
19	O=C1N[C@@H](c2ccccc2)COCc2cn(nn2)CC[C@H]1Cc1cccc(Cl)c1	17
20	CCN1C(=O)CCc2cc(NS(=O)(=O)c3cccc(F)c3)ccc21	194
21	Cc1cc(SCc2sc(-c3ccc(C(F)(F)F)cc3)nc2C)ccc1OCC(=O)O	90
22	O=C(c1ccco1)N1CCN(S(=O)(=O)c2ccc(Cl)s2)CC1	14
23	CC(=O)N1[C@@H](CO)[C@H](c2ccccc2)[C@@H]1CN(CC1CCC1)C(=O)CN(C)C	-11
24	O=C(c1cccc(F)c1)N1CCC(O)(c2cccnc2F)CC1	-6
25	CC(=O)Nc1nc(C2CCCN(C(=O)C3CCC3)C2)cs1 (stereo not given)	-25
26	CCCNC(=O)[C@@H]1[C@@H](CO)[C@@H]2Cn3c(ccc(C4=CCCCC4)c3=O)[C@@H]2N1Cc1ccccc1F	-52
27	CCC(C)NC(=O)Cn1nc(C)c2sc(-c3ccccc3)nc2c1=O (stereo not given)	62
28	Cc1ccc(S(=O)(=O)N(C)c2cncc(C(=O)N3CCN(Cc4ccccc4)CC3)c2)cc1	9
29	O=C(C1CCN(C2CCN(Cc3nc4ccccc4s3)CC2)CC1)N1CCCC1	17
30	Cc1cc(N2CCCN(Cc3cnc(-c4ccccn4)nc3)CC2)ccn1	4

The list goes on.
#	smiles	Tg IFNy HTS
31	C[C@H](CO)N1C[C@H](C)[C@@H](CN(C)Cc2ccccc2)Oc2c(NC(=O)Cc3cn(C)c4ccccc34)cccc2C1=O	-93*
32	Oc1ccccc1-c1cncn1Cc1ccccc1	?
33	N#Cc1ccccc1OCC(O)CNCCNC(=O)Nc1ccccc1 (stereo not given)	6&6
34	COc1ccc2c3c(n(C)c2c1)[C@H](CO)N(C(=O)c1cccc(F)c1)CC31CN(C(=O)c2cccc(F)c2)C1	-17
35	O=C(Oc1ccc2oc(=O)sc2c1)c1ccccc1Cl	80
36	COc1cc(C(F)(F)F)cc(C(F)(F)F)c1C(=O)Oc1ccc(Cl)cc1	-96*
37	CCNC(=O)c1noc(-c2cc(C(C)C)c(O)cc2O)c1-c1ccc(CN2CCOCC2)cc1	-88*
38	O=C(Nc1ccccc1Cl)NC1(C(=O)NCc2cccnc2)CCCCC1	-5
39	Cc1ccc(F)cc1N1CC(C(=O)O)CC1=O (stereo not given)	7
40	Cc1cnccc1N1CCCN(Cc2c(CO)cnc(C)c2O)CC1	-44
41	COc1ccc(-c2ccnc(SC)n2)cc1	-82*
42	O=C(c1cscn1)N1CCCC2(CCCN2Cc2ccccc2F)C1 (stereo not given)	28
43	CCC1CCCCN1S(=O)(=O)c1cc(-c2nc(C)c(C)s2)sc1C (stereo not given)	-56
44	C=CCn1c(=O)c(C(=O)Nc2ccc(C)c(F)c2)c(O)c2ccccc21	382
45	COc1ccc(S(=O)(=O)CCNC(=O)c2n[nH]c3c2CC(C(C)(C)C)CC3)cc1 (stereo not given)	0

Later entries:
#	smiles	Tg IFNy HTS
46	COCCN1CC2(CCN(C(=O)CC3CC3)CC2)COc2ccccc2S1(=O)=O	-43
47	CCOC(=O)c1sc(-c2ncc(C(F)(F)F)cc2Cl)nc1C	-1
48	COc1ccc2c3c(n(C)c2c1)[C@@H](CO)NCC31CCN(C(=O)Nc2ccc(F)cc2F)CC1	1
49	CN(C)CCN1CCN(C(=O)c2ccno2)Cc2cccnc21	6
50	O=C(CCc1nc(-c2ccccn2)no1)Nc1ccccc1Oc1ccc(F)cc1	8
51	O=C(c1cccnc1)N1CCC(Cc2nc(-c3ccsc3)cc(=O)[nH]2)CC1	-7
52	CCOC(=O)c1nn(CC(C)C)c2c1CN(C(=O)c1csc3c1CCCC3)CC2	-2
53	CCS(=O)(=O)N1CCCCN2[C@H](CO)[C@H](c3ccc(C#Cc4ccccn4)cc3)[C@@H]2C1	-2
54	N#Cc1c(Nc2ccccc2)[nH]c(=O)[nH]c1=O	12
55	COCC1CN(C(=O)CC2C=CCC2)Cc2nnn(C)c21 (stereo not given)	5
56	CCOC(=O)c1cnc2c(c(C)nn2C)c1N1CCC(n2cccc2)CC1	-55
57	Cc1cc(C(=O)Nc2ccc3c(c2)C(=O)N(C)[C@H]2CC[C@@H](CC(=O)NCc4ccc(-c5ccccc5)cc4)O[C@H]2CO3)no1	-79*
58	CC(CCc1ccccc1)NC(=O)c1cc2ccccc2o1 (stereo not given)	13
59	O=S(=O)(CCc1ccncc1)N1CCOC(c2nc(Cc3ccccc3F)no2)C1 (stereo not given)	0
60	Cc1noc(C)c1S(=O)(=O)N(C)C[C@@H]1OCCCC[C@@H](C)Oc2ccc(N(C)C)cc2C(=O)N([C@@H](C)CO)C[C@@H]1C	i

4 entries from above, as labelled records:
54: N#Cc1c(Nc2ccccc2)[nH]c(=O)[nH]c1=O
  Tg IFNy HTS = 12

55: COCC1CN(C(=O)CC2C=CCC2)Cc2nnn(C)c21 (stereo not given)
  Tg IFNy HTS = 5

56: CCOC(=O)c1cnc2c(c(C)nn2C)c1N1CCC(n2cccc2)CC1
  Tg IFNy HTS = -55

57: Cc1cc(C(=O)Nc2ccc3c(c2)C(=O)N(C)[C@H]2CC[C@@H](CC(=O)NCc4ccc(-c5ccccc5)cc4)O[C@H]2CO3)no1
  Tg IFNy HTS = -79*

(listing goes on)
#	smiles	Tg IFNy HTS
61	O=C(Nc1ccccc1)C1CN(C(=O)NCc2cccc(F)c2)CC12CCOCC2 (stereo not given)	6
62	COc1ccc2c3c(n(C)c2c1)[C@H](CO)N(Cc1ccccc1Cl)CC31CN(C(=O)CN(C)C)C1	-29
63	CN1CC2CCCC3(C1)C(=O)NC1(CCCCC1)N=C23 (stereo not given)	0&-7
64	COc1ccc(-n2c(=O)c(C(=O)Nc3ccccc3)c(O)c3cccnc32)cc1	146
65	COc1ccccc1-n1cnnc1Cc1ccncc1	-7
66	Cc1ccsc1C(=O)N1C[C@H](Oc2cccnc2)[C@@H]2OCCC[C@@H]21	-52
67	Cc1nnc(SCCC(=O)N2CCC2c2ccc(F)cc2)s1 (stereo not given)	-1
68	CCOC(=O)c1cnc(-c2ccccc2)nc1Nc1ccc(C)cc1	2
69	Cc1nccc(-c2ccc(-c3noc(CN4CCN(C(C)c5ccccc5)CC4)n3)cc2)n1 (stereo not given)	-1
70	Cc1ccoc1C(=O)N(C)Cc1nc(C(C)C)no1	3
71	CC(c1ccc2c(c1)OCCO2)N(C)C(=O)c1cccc(-n2cnnc2)c1 (stereo not given)	32
72	O=C(CCSCc1ccc(Cl)c(Cl)c1)Nc1cccnc1	-25
73	O=C(CC1CCCC1)NCc1nnc(-c2nccc3ccccc23)o1	6
74	CN1CCn2nc(-c3nc4ccccc4n3C)cc2C1	206
75	CCn1cc(CC(=O)NCc2nc(-c3ccccc3Cl)no2)c2ccccc21	151

The last five records of the part above lead into the next.
#	smiles	Tg IFNy HTS
71	CC(c1ccc2c(c1)OCCO2)N(C)C(=O)c1cccc(-n2cnnc2)c1 (stereo not given)	32
72	O=C(CCSCc1ccc(Cl)c(Cl)c1)Nc1cccnc1	-25
73	O=C(CC1CCCC1)NCc1nnc(-c2nccc3ccccc23)o1	6
74	CN1CCn2nc(-c3nc4ccccc4n3C)cc2C1	206
75	CCn1cc(CC(=O)NCc2nc(-c3ccccc3Cl)no2)c2ccccc21	151
76	O=C(C[C@H]1CC[C@@H](NC(=O)c2ccc3c(c2)OCO3)[C@H](CO)O1)NCc1ccc(Oc2ccccc2)cc1	-19
77	CC(C)N1CCOC(CC(=O)N(C)Cc2ccsc2)C1 (stereo not given)	1
78	CC(=O)N[C@@H]1C[C@H](Cc2ccccc2)O[C@H](c2ccc(-n3cncn3)cc2)C1	-4
79	C=CC[C@H]1CC(C)=C[C@H](CC=C)N1C(=O)CCN1CCCC1=O	-30
80	Cc1c(S(=O)(=O)Nc2ccc3c(c2)N(C)C(=O)CO3)cnn1C(F)F	14
81	Cc1ccc(NC(=O)N2CCC3(C2)CN(c2ccsc2)C(=O)CN3C)cc1 (stereo not given)	188
82	Cc1cccc(C(=O)N2CC3CCC(C2)N3C(C)C)c1	26
83	CC(=O)c1ccc(CN2CCCN(c3ccc(F)cc3)CC2)cc1	13
84	CCc1cccc(NC(=O)CCC(=O)N2CCOCC2CC(=O)O)c1 (stereo not given)	24
85	O=C(Nc1nc2ccccc2s1)C(Cc1ccccc1)N1C(=O)c2ccccc2C1=O (stereo not given)	30
86	CCOc1ccc(-c2cncnc2)cc1	3
87	CCCc1cc(C(=O)N2CCC3(CC2)Nc2ccccc2NC3=O)n(C)n1	0
88	CN(Cc1nc2ccsc2c(=O)[nH]1)CC1(O)CCCN(CC2CCC2)C1=O (stereo not given)	0
89	Nc1ccc2cn[nH]c2c1	16
90	c1ccc2c(c1)CNCC21CCN(C2CCOCC2)CC1	-1

(further entries)
#	smiles	Tg IFNy HTS
91	Cc1ccc(Cl)cc1NC(=O)c1c(O)c2ccccc2[nH]c1=O	74
92	FC(F)(F)c1cc(-c2noc(C3CCc4ccccc4O3)n2)cc(C(F)(F)F)c1 (stereo not given)	50
93	CC(C)(C)c1ccc(S(=O)(=O)N2CCC3(CC2)Nc2ccccc2-n2cccc23)cc1	9
94	Cc1noc(C)c1-n1sc(=O)n(-c2ccc(F)cc2)c1=O	-4
95	CCn1c(C2CCCN(C(=O)Nc3cccc4ccccc34)C2)n[nH]c1=O (stereo not given)	16
96	COc1nc2c(cc1C(=O)Nc1cnc3n1CCCC3)C(=O)N(C1CCCC1)C2	-9
97	CC(CCc1ccco1)NC(=O)CCN1CCCCO1 (stereo not given)	3
98	CC(=O)OC(C)C1CCC2C3CC[C@H]4CC(=O)CCC4(C)C3CCC12C (stereo not given in full)	-97*
99	CCC(CC)n1ncc(C)c1NC(=O)c1cc(C)nc(C)n1	7
100	CN1CCC(NCc2ccc(OCc3ccccc3)cc2)C1=O (stereo not given)	10
101	COCCN1C(=O)N(C2Cc3ccccc3C2)C(=O)C12CCN(Cc1nccs1)CC2	-6
102	Cn1cc(C[C@H]2[C@@H](OCC3CC3)CCN2C(=O)c2ccoc2)cn1	-7
103	CC(c1ccc(F)cc1)N(C)C(=O)CCN1CCCO1 (stereo not given)	0
104	C=CCn1c(=O)c(C(=O)Nc2cccc(CC)c2)c(O)c2ccccc21	46
105	Cc1cc(CN(C)C(=O)c2coc(COc3ccc4sc(C)nc4c3)n2)on1	13

(continued)
#	smiles	Tg IFNy HTS
106	COc1ccc(-c2[nH]ncc2-c2ncc[nH]2)cc1	0
107	Cc1cccc(-c2noc(-c3c(O)c4cc(F)ccc4n(C)c3=O)n2)c1	3
108	OCn1nnn(-c2ccccc2)c1=S	73
109	COc1ccc(NC(=O)C(=O)NCCc2sc(-c3ccc(F)cc3)nc2C)cc1	20
110	Cc1nn(C(C)CC(=O)O)c(C)c1Br (stereo not given)	3
111	Cc1cccc(-c2nc(C)c(CCNS(=O)(=O)c3ccc(Cl)cc3)s2)c1	i
112	Cc1ccc2c(CN3CCN(Cc4nc(-c5ccccc5)oc4C)CC3)cc(=O)oc2c1	4
113	COc1cccc(-c2nc(Cc3nc(-c4ccccc4OC)oc3C)no2)c1	32
114	CS(=O)(=O)N1CCOCC2(CN(c3ncccn3)CCO2)C1 (stereo not given)	1
115	CC1(C)CC(=O)c2c(C#N)sc(C#N)c2C1	32
116	O=C(c1cccs1)N1CCOC2CC(COc3ccccn3)CC21 (stereo not given)	6
117	CCN1C[C@H]2C3(CCN(CC4CCOCC4)CC3)CC[C@@]2(C(=O)N2CCCC2)C1	8
118	COCC1CN(C(=O)c2cscn2)Cc2cn(C)nc21 (stereo not given)	-21
119	COc1ccc2c(c1)c(CC(=O)N1CCOCC1)c(C)n2C(=O)c1ccc(Cl)cc1	-1&-4
120	Cc1ccc2[nH]c(=O)c(CN(Cc3c(C)nn(C)c3C)C3CC3)cc2c1	0

(more compounds)
#	smiles	Tg IFNy HTS
121	O=S(=O)(NCc1ccc(-c2csnn2)cc1)c1ccc(F)c(Cl)c1	31
122	CS(=O)(=O)N1CCC2(CCCN(C(=O)Cc3cccnc3)C2)C1 (stereo not given)	-1
123	COc1cc2c(cc1CN1CCN(c3ncccc3C)CC1)OCO2	12
124	COc1ccccc1NC(=O)N1[C@H](C#N)[C@H](c2ccccc2)[C@@H]1CO	4
